# Ecoli growth – blocks Escherichia coli growth; OD600, 23 h; stronger effect = lower value; OD600 absorbance (test concentration not listed); 330,000 compounds, 0.21% hits;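 active = OD600 absorbance below the run mean of sample wells minus 3.6 SD, in any replicate, cut at about 0.56 in these data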;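 also: stock transfer was 300 nL into about 60 µL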
# FGF22 binding – binders of recombinant human FGF22 by thermal shift | Q9HCT0 | SYPRO orange fluorescence; percent of sucrose octasulfate shift, DMSO zero | calls only at 9.99 µM | 340,000 compounds, 1.5% hits;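 active = melting point raised past a set limit in the mean and every replicate; inconclusive = no clear call; three in four hits are not shown here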
# Target sequence (Q9HCT0 whole entry, looked up): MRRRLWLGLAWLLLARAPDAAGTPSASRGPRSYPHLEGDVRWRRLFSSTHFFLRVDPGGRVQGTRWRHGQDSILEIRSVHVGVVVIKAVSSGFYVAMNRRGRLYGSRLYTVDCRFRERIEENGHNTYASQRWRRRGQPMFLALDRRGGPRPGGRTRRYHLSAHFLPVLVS
# UCH37 inh – human UCH37 deubiquitinating enzyme inhibition; 330,000 compounds, 0.33% hits; purified proteasome/UCH37, Ub-AMC cleavage fluorescence; inhibition, % (test concentration not listed); AID 588478; Q9Y5K5;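 active = mean of two replicates above 20%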;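 also: 0% = compound-free wells with enzyme and 100% = wells lacking proteasome; stock transfer was 100 nL into about 20 µL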
# Target sequence (Q9Y5K5 whole entry, looked up): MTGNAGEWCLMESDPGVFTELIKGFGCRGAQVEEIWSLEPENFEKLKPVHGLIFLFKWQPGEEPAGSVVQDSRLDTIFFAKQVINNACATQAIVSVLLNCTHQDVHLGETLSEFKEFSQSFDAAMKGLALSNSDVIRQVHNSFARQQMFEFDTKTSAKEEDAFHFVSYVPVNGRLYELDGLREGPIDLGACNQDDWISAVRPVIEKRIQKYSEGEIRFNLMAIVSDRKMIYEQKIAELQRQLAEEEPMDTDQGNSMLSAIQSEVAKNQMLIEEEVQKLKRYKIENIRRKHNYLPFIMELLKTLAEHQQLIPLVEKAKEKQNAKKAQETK
#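 assay system = human UCH37 enzyme supplied as purified proteasome complex | amount = proteasome at 0.15 nM in the dispensed enzyme solution | schedule = 30 min compound-proteasome preincubation then 25 min substrate reaction, room temperature | measured by = fluorescence, ex 355 nm, em 460 nm | benchmarks = no-proteasome wells (full inhibition) and compound-free wells (no inhibition)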
# AF4-AF9 inh – inhibitors of human MLL-AF4/AF9 interaction. inhibition, % at 10 µM. AlphaScreen, biotin-AF4 peptide binding to FLAG-AF9. P42568. 350,000 compounds, 0.47% hits;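 active = every replicate reaching a set inhibition limit, whatever the replicate mean, cut at about 25% in these data; inconclusive = mean inhibition reaches that limit but some replicates miss it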;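 also: 0% = plate neutral control median and 100% = total signal loss; the record names both 10 and 1 µM as test concentration; the first replicate is given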
# Target sequence (P42568 whole entry, looked up): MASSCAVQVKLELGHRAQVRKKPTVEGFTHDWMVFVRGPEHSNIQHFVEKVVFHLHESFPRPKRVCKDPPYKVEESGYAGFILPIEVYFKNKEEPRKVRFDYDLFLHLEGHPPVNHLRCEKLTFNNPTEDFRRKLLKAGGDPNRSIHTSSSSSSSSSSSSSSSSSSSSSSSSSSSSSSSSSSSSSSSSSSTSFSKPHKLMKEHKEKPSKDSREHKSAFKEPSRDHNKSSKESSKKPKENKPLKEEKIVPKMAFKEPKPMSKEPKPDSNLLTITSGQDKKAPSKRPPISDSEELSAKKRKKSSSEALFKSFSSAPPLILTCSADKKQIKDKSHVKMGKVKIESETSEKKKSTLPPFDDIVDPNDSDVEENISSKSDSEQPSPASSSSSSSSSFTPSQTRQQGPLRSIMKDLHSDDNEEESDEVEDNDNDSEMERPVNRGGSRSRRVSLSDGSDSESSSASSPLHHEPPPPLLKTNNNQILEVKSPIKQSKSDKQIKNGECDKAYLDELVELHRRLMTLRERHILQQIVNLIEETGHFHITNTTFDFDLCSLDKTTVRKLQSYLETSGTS
# Vif A3G – HIV-1 Vif–A3G interaction blockers – biochemical, TR-FRET, GST-Vif 1-94, biotin-A3G peptide, dose response retest, primary screen (AID 1117319); inhibition, %, or IC50 in µM where a hit was titrated; TR-FRET GST-Vif / biotin-A3G peptide binding; higher % means a stronger effect; test concentration not given here; strong numbers were not always called active; 260,000 compounds, 0.57% hits;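 active = above the screen mean plus three standard deviations and confirmed in dose response; inconclusive = results disagree or hit not tested in dose response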;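 also: Vif residues 1-94 fused to GST binding biotinylated APOBEC3G peptide 110-148; 0% = full assay without inhibitor and 100% = GST in place of GST-Vif; retest series ran down from 100 µM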
# RanGTP-Impb inh – disruptors of Ran-importin-beta complex formation – biochemical, FRET, CFP-Ran, YFP-importin-beta, homogeneous, primary screen | cell-free CFP-Ran/YFP-importin-beta FRET ratio | 300,000 compounds, 1.1% hits | AID 2216 | inhibition, % (concentration not given with the values);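 active = most replicates above 15%; inconclusive = exactly half above 15%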;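 also: 0% = DMSO wells and 100% = Ran loaded with GDP instead of GTP; wells of about 40 µL received 100 nL stock; the first replicate is given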
# HNF4A DNA FP – change in binding of human HNF4 alpha to DNA | HNF4a-FITC DNA binding, fluorescence polarization, 1 h | activity change, % at 10 µM | 360,000 compounds, 0.3% hits; in the data active = activity change above about 30%, passing the limit was not always enough;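 also: controls were the assay level and a saturating level of protein; the project sought stronger binding though the title names inhibitors; some compounds called inactive have numbers as strong as hits; positive values seem to mean higher polarization but the record does not say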
# The depositor's hits bear a star; i = inactive; ? = inconclusive; . = no result given; & = joins results of further samples.
SMILES,Ecoli growth,FGF22 binding,UCH37 inh,AF4-AF9 inh,Vif A3G,RanGTP-Impb inh,HNF4A DNA FP
O=C(C[C@H]1CC[C@@H](NC(=O)Nc2ccc3c(c2)OCO3)[C@@H](CO)O1)NCc1ccccc1,.,i,.,-1.2&-1.1,.,.,-0.6
COC(=O)c1ccc(OCC2c3cc(OC)c(OC)cc3CCN2C(=O)C2CC2)cc1 (stereo not drawn),0.645,.,2.2,.,10.0%&2.6%,.,-1.2
COc1cc(CN2CCCC(C(=O)Nc3cccc(-n4cccn4)c3)C2)ccc1F (stereo not drawn),0.663,i,3.8,2.9,-2.6%,-0.6,-0.3
O=C1CSC2=NCN(c3ccccc3)CN12,0.679,.,0.7,.,-0.8%,3.5,1.6
CC1CCN(CC(O)COc2ccc(OCC(O)CN3CCC(C)CC3)cc2)CC1 (stereo not drawn),0.684,i,-0.5,5.6,6.4%,3.4,1.2
COc1ccc([C@@H]2[C@@H]3C(=O)N(C(C)(C)C)C(=O)[C@@H]3[C@]3(CC(C)C)C(=O)N(c4ccccc4)C(=O)N23)cc1,.,i,0.6,4.2,.,2.8,2.0
CCS(=O)(=O)Nc1ccc(-c2ccc(NS(=O)(=O)CC)c(OC)c2)cc1OC,0.734,.,4.7,.,7.1%,1.8,3.2
C=CCN1C(=O)C(CC(=O)Nc2ccccc2)SC1=Nc1c(C)n(C)n(-c2ccccc2)c1=O (stereo not drawn),0.689,.,2.6,.,-0.4%,0.7,-1.6
CC(C)(C)OC(=O)NNC(=O)c1ccc(Cl)cc1,0.69,.,4.9,.,10.2%,0.1,1.2
COc1ccc(CN(C)Cc2nc3scc(-c4ccccc4)c3c(=O)[nH]2)cc1OC,0.69,i,5.4,-6.6,6.7%,-2.0,2.3
O=C(Nc1cc(Cl)ccc1N1CCOCC1)c1cccnc1Cl,0.678,i,5.0,-3.7,-0.1%,-3.5,3.1
O=C(/C=C/c1ccc2c(c1)OCO2)NCc1cn2cc(Cl)ccc2n1,0.68,i,-36.3,-0.9,-2.3%,2.2,7.4
COCCNC(=O)C1(C)CCN(C(=O)c2cccnc2Oc2ccccc2)C1 (stereo not drawn),.,i,.,-1.6,.,.,-1.7
COc1ccc2c(c1)OC[C@H]1[C@@H]2N2C(=O)CNC(=O)[C@@]2(C)[C@H]1c1ccccc1,.,i,1.2,1.3,.,.,5.2
Cc1ccc(N2C(=O)C(Cl)=C(NCc3ccccc3)C2=O)c(C)c1,0.758,.,-2.3,.,0.0%,-3.0,-2.6
COc1ccc(NC(=O)c2cc([N+](=O)[O-])ccc2N2CCCC2)cc1,0.644,i,6.5,-1.2,-0.8%,0.5,1.0
COc1ccccc1N1CCN(C(=O)c2cccc(S(=O)(=O)N3c4ccccc4CC3C)c2)CC1 (stereo not drawn),0.666,i,3.8,-0.6,.,.,0.5
CCc1ccc(C2c3[nH]c4ccccc4c3CCN2C(=O)CNC(N)=O)cc1 (stereo not drawn),0.7,i,4.4,10.5,.,-0.8,0.6
COc1ccc(-c2nnn(Cc3nn[nH]n3)n2)cc1OC,0.651,.,4.0,.,-1.6%,1.3,-3.5
Cc1ccc(C(=O)Nc2cccc(C(=O)N/N=C/c3ccccc3F)c2)cc1,.,i,.,0.0,.,-2.4,3.7
CC1CCN(C(=O)CN2C(=O)NC(c3ccccc3)(c3ccccc3)C2=O)CC1,0.67,i,4.1,-4.7,.,.,4.0
O=C(O)CCC(=O)N1CCN(c2ncccc2C(F)(F)F)CC1,0.713,i,0.5,-0.1,13.1%,-1.8,-3.2
O=C(CSc1nc2ccccc2s1)NCCOc1ccc(Cl)cc1,0.771,.,0.3,.,5.4%,-0.7,1.1
CCc1nc2ccc(C(=O)NCCOc3ccc(OC)cc3)cn2c1N(C)C(=O)COc1ccccc1,.,i,.,1.6,.,.,1.7
CC(C)Cc1ccc(CN2CCCC(NC(=O)CCCN3CCCC3=O)C2)cc1 (stereo not drawn),0.72,i,-0.4,3.6,.,5.5,-1.5

# Continued:
SMILES,Ecoli growth,FGF22 binding,UCH37 inh,AF4-AF9 inh,Vif A3G,RanGTP-Impb inh,HNF4A DNA FP
O=C(CCN1CCN(c2ccc(Cl)cc2)CC1)Nc1nccs1,0.701,.,4.4,.,-2.2%,0.3,0.4
Cc1ccc(C2CC(c3cccs3)n3nc(N)nc3N2)cc1 (stereo not drawn),0.657,.,-3.0,.,23.6%,1.4,4.0
NS(=O)(=O)c1ccc(CCNC(=O)CCCCCn2c(=S)[nH]c3ccc(Br)cc3c2=O)cc1,0.687,i,5.4,-1.3,-59.3%,-2.3,2.4
CCN(CC)CCCNc1oc(-c2ccccc2[N+](=O)[O-])nc1C#N,0.592,i,2.1,-12.5,9.7%,2.0,2.7
O=C(CC1S/C(=N/N=C/c2c[nH]c3ccc(OCc4ccccc4)cc23)NC1=O)Nc1ccccc1 (stereo not drawn),.,.,.,.,22.1%,0.4,0.7
CCN1CCN(c2oc(COc3ccc(-c4ccccc4)cc3)nc2C#N)CC1,0.708,.,2.2,.,-2.4%,-1.9,-0.9
COc1ccc(CN2CCN(c3ncnc4scc(-c5ccc(F)cc5)c34)CC2)cc1,0.689,i,2.0,10.4,.,1.1,-2.9
O=S(=O)(c1ccccc1)c1nc(-c2ccccc2)oc1N1CCCCC1,0.707,.,0.3,.,-1.8%,5.8,-3.0
C/C(=N\NC(=O)CC1N=C(Cc2ccccc2)NNC1=O)c1ccccc1 (stereo not drawn),.,.,.,.,-0.5%,0.7,0.1
CCOC(=O)CSc1nc2ccc(N)cc2s1,0.762,.,-1.9,.,31.2%,-0.5,-0.8
COc1ncnc2c1oc1nc(CC(C)C)c3c(c12)CC(C)(C)OC3,0.688,.,2.2,.,9.7%,?,-2.9
Fc1cc(F)c2nc(Nc3nc4c(F)cccc4s3)sc2c1,0.66,i,-43.8,5.2,.,-0.6,-1.6
COc1cc2cc(C(=O)N3CCOCC3)cc(-c3ccc(C)cc3)c2cc1OC,0.614,i,0.7,8.0,6.7%,1.5,2.1
CCN(CC)C(=O)c1cccc(-c2csc(C(C)(O)c3ccncc3)n2)c1 (stereo not drawn),.,i,.,-4.6,.,.,-1.5
O=C(c1ccccc1)c1ccc2nc(N3CCCCC3)c3nncn3c2c1,0.736,i,3.0,-1.3,-20.0%,-1.3,2.7
O=C(CN1C(=O)NC2(CCCc3ccccc32)C1=O)N1CCN(C(=O)c2ccco2)CC1 (stereo not drawn),0.66,.,5.5,.,9.3%,4.0,-0.2
CCN1CCN(CCCNC(=O)c2csc3c2CCCCC3)CC1,0.674,.,4.6,.,-0.1%,-0.3,-3.6
Cc1ccc(NC(=O)c2cc(N3CCOCC3)nc3ccccc23)cc1,0.669,.,-59.2,.,10.4%,0.0,-0.4
CC1CCc2sc(C(=O)Nc3ccc(N4CCOCC4)cc3)cc2C1 (stereo not drawn),0.67,i,0.1,8.1,-2.6%,4.7,-1.7
Cn1c(CSc2ncccn2)nnc1SCC(=O)N1CCCC1,0.65,i,0.8,-1.4,8.7%,4.1,1.8
O=C(O)c1cc(S(=O)(=O)NCC2CCCO2)ccc1Cl (stereo not drawn),0.665,.,3.3,.,?,1.2,-1.9
O=C(Nc1ccccc1)C1CC2CCCC(C1)C2=O (stereo not drawn),0.712,i,4.0,-0.9,1.0%,5.8,-1.3
COc1cccc(C(=O)N2CCC[C@H]2C(=O)N2CCC[C@H]2C(=O)N[C@@H](C)c2ccccc2)c1,.,i,.,-3.3,.,.,0.0
O=c1[nH]c(=S)[nH]c2c1C(c1ccc(Br)cc1)c1c([nH]c(=S)[nH]c1=O)O2,0.665,i,26.9*,-5.4,41.1µM*,0.1,-63.6
CC(=O)N/C(=C\c1ccc(F)cc1)C(=O)OCc1ccccc1,0.641,i,-3.3,2.2,-2.7%,-1.1,0.8

# Some of these compounds in order of their number in UCH37 inh, lowest first.
mol | UCH37 inh
CC1CCc2sc(C(=O)Nc3ccc(N4CCOCC4)cc3)cc2C1 (stereo not drawn) | 0.1
O=S(=O)(c1ccccc1)c1nc(-c2ccccc2)oc1N1CCCCC1 | 0.3
CCN(CC)CCCNc1oc(-c2ccccc2[N+](=O)[O-])nc1C#N | 2.1
COc1ncnc2c1oc1nc(CC(C)C)c3c(c12)CC(C)(C)OC3 | 2.2
O=C(Nc1ccccc1)C1CC2CCCC(C1)C2=O (stereo not drawn) | 4.0

# Exported with values ahead of the structure: part of the list above
Ecoli growth | FGF22 binding | UCH37 inh | AF4-AF9 inh | Vif A3G | RanGTP-Impb inh | HNF4A DNA FP | SMILES
0.669 | . | -59.2 | . | 10.4% | 0.0 | -0.4 | Cc1ccc(NC(=O)c2cc(N3CCOCC3)nc3ccccc23)cc1
0.67 | i | 0.1 | 8.1 | -2.6% | 4.7 | -1.7 | CC1CCc2sc(C(=O)Nc3ccc(N4CCOCC4)cc3)cc2C1 (stereo not drawn)

# (further entries)
SMILES,Ecoli growth,FGF22 binding,UCH37 inh,AF4-AF9 inh,Vif A3G,RanGTP-Impb inh,HNF4A DNA FP
CCc1nnc(NC(=O)CSc2nnnn2-c2cccc(C(C)=O)c2)s1,0.621,i,1.1,-0.4,.,7.5,3.8
c1ccc2c(c1)CCc1c(-c3ccncc3)n[nH]c1-2,0.64,i,4.1,-3.2,-3.5%,.,-3.0
c1ccc(-c2nc(-c3ccncc3)no2)cc1,0.696,.,0.6,.,1.9%,3.4,1.2
CC1Sc2ccc(C(=O)NCc3ccccn3)cc2NC1=O (stereo not drawn),0.659,i,2.0,0.5,-1.3%,.,-3.5
COc1ccc(CCN2CC(C(=O)OCC(=O)NC(Cc3ccccc3)C(C)=O)CC2=O)cc1OC (stereo not drawn),.,i,.,1.2,.,.,2.9
O=C(OCC(=O)c1ccc[nH]1)c1ccccc1,0.693,i,-0.8,1.0,?,1.4,0.6
COC(=O)C1=C(C)N(C)C(=S)N(C)C1c1ccc(OC)cc1 (stereo not drawn),0.692,i,2.7,-0.3,-4.4%,8.9,-1.0
CC1(C)CC(NC2C3CC4CC(C3)CC2C4)CC(C)(C)N1 (stereo not drawn),0.687,i,5.0,-2.4,30.8%,1.7,0.8
CCCc1cc(=O)n2nc(N3CCC(C(=O)NCc4ccc(C)o4)CC3)sc2n1,0.689,i,3.0,?,.,?,-3.8
O=C(CSc1nncn1-c1ccccc1)Nc1ccc(N2CCOCC2)cc1,0.702,.,4.0,.,5.2%,4.0,-4.5
Cc1ccc(N=Nc2c(C)[nH]n(C(N)=S)c2=O)cc1,0.689,i,10.0,2.1,-0.9%,0.4,-4.8
OCC[C@@H]1C[C@@H](O)[C@H](O)[C@]2(OCc3ccccc32)O1,.,i,1.6,-5.0,.,?,-0.8
CCOc1ccccc1CNC(=O)CCCc1cn(C)c2ccccc12,0.707,i,4.1,48.9*,.,3.2,1.4
C=CCOC(=O)C1=C(C)NC(=O)NC1c1ccc(O)cc1 (stereo not drawn),0.708,i,3.0,-1.5,.,-3.9,0.4
O=C(NNS(=O)(=O)c1ccc(F)cc1)c1ccccc1,0.614,i,7.1,-2.3,.,-1.9,-1.3
COc1ccc(Nc2ncnc3ccc([N+](=O)[O-])cc23)c(OC)c1,0.721,i,8.3,1.3,9.2%,-0.2,2.1
O=C(CSc1nnc2scc(-c3ccccc3)n12)N1CCCc2ccccc21,0.653,i,-0.3,4.4,-1.4%,-2.8,3.5
COc1ccccc1CNC(=O)CCS(=O)(=O)c1ccc2c(c1)CCN2C(C)=O,0.701,i,1.2,-4.7,.,2.5,2.3
NNC(=O)c1ccc(COc2cccc3cccnc23)cc1,0.734,i,3.4,-0.3,.,-1.8,2.5
Cc1ccc(C(=O)NNC(=O)Cn2ccc(C(F)(F)F)n2)o1,0.602,i,0.9,-3.0,-0.5%,6.8,-4.2
C=CCn1c(-c2ccccc2)nc2nc3ccccc3nc21,0.688,.,-114.2,.,-17.0%,-1.0,0.9

# High-throughput results deposited in PubChem by several laboratories.

# The list is partial (hit frequency here may not be typical).
